From PubChem
AID504770: growth inhibitors of E. coli YBA685 in a screen for V. cholerae RctB (chromosome II replication) inhibitors | E. coli YBA685 rctB-dependent plasmid, OD600 growth, 3 h; hits give low values | z-score (concentration not given with the values) | 130,000 compounds, 0.27% hits;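 active = z-score under -2 on both plates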;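 note: wells of about 30 µL received 100 nL stock; score is relative to mean and SD of the test wells; the first replicate is given; strong numbers were not always called active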
CapD inh: CapD enzyme inhibition; purified CapD enzyme, fluorescence intensity read-out; hits give low values; some hits fall short of the stated cut; z-score (test concentration not listed); 140,000 compounds, 0.23% hits;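 active = z-score under -4 in either of two replicates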;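 note: stock transfer was 100 nL into about 40 µL; score is relative to mean and spread of the plate; one replicate is shown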
* = called active by the depositor; nt = not tested or not shown.

smiles | AID504770 | CapD inh
Cn1/c(=N/N=C/c2ccc(N3CCOCC3)cc2)sc2ccccc21 | -0.2 | nt
CC(NC(=O)c1ccc(C(=O)NC(C)c2ccccc2)s1)c1ccccc1 (stereo not given) | -0.6 | 0.59
COc1ccc(-c2[nH]ncc2-c2ccncc2)cc1 | nt | -0.4
O=C(NCc1ccc(-c2cccs2)cc1)C1=Cc2ccccc2OC1 | 0.55 | 3.1
CCOc1ccc(N(CC(=O)N2CCN(c3ccc(F)cc3)CC2)S(=O)(=O)c2c(C)noc2C)cc1 | -0.35 | -0.17
CCCNC(=O)c1ccc2c(c1)N(Cc1ccccc1)C(=O)c1ccccc1S2=O (stereo not given) | 1.1 | -0.94
N#Cc1ccccc1OCC(=O)NC1(C#N)CCCC1 | -0.6 | nt
CCN(CC)C(=O)CSc1nc2ccccc2n1S(=O)(=O)c1ccc(Cl)cc1 | nt | -0.4
O=C(NCCC1=CCCCC1)c1ccccc1 | 1.1 | nt
O=C(Nc1ccc(N2CCOCC2)cc1N1CCOCC1)c1ncoc1-c1ccccc1F | 0.35 | nt
CCOC(=O)c1c(CSC(=N)N)n(-c2ccc(OC)cc2)c2cc(Br)c(OC(C)=O)cc12 | -0.35 | -0.15
CSc1ccc(C=Nc2ccc(C)c(C)c2)cc1 | 0.45 | -1.6
CCOC(=O)C1CCN(S(=O)(=O)c2ccc(F)c(C(=O)Nc3ccc(Br)cc3F)c2)CC1 | nt | 0.2
NC(=O)C(Cc1ccccc1)NC(=O)C12CC3CC(CC(C3)C1)C2 (stereo not given) | 0.05 | 0.14
Cc1ccc(C(N)CCc2ccco2)cc1C (stereo not given) | -1.1 | nt
Cc1nc(-c2ccc(Cl)cc2)cc(C(F)(F)F)c1C#N | -0.35 | 4.7
CCOC(=O)C1=C(O)/C(=C/c2cccc(OC)c2)SC1=Nc1ccccc1 | nt | -1.1
Cc1ccc(S(=O)(=O)C(C#N)=C2N(C)c3ccccc3N2C)cc1 | -0.05 | nt
Cc1ccc2nc(C)c3c(c2c1)OCN(CC1CCCO1)C3 (stereo not given) | 1.1 | nt
COC(=O)Cn1ncc(N2CCc3ccccc3C2)c(Cl)c1=O | -0.95 | nt
CCOC(=O)C1=C(C)NC(=O)C1CC(=O)Nc1ccccc1 (stereo not given) | -0.65 | -0.59
COCCn1cnc2c1c(=O)n(Cc1ccc(Br)cc1)c(=O)n2Cc1ccccc1 | -0.65 | nt
COc1cccc(Nc2nc(O)c(C3=c4ccccc4=NC3=O)s2)c1 | -0.5 | 0.14
COC(=O)c1c(O)c2ccccc2[nH]c1=S | -0.9 | -3
CCOc1ccc(C2C=C(N)Oc3nc(COC)[nH]c32)cc1OC (stereo not given) | -0.8 | -0.06
CN1C(=O)NC(=O)/C(=C\c2ccc(OCc3ccc(C(=O)O)cc3)c(Br)c2)C1=O | nt | 0.075
Cc1ccc(C2=NN(C(=O)COC(=O)C3CCN(S(=O)(=O)c4cccs4)CC3)C(c3ccco3)C2)cc1 (stereo not given) | 0.75 | nt
CCOc1ccc(-c2[nH]nc3c2C(c2ccc4c(c2)OCO4)C(C#N)=C(N)O3)cc1OC (stereo not given) | nt | -1.1
Nc1nc2ccc(S(N)(=O)=O)cc2s1 | 1.6 | 0.14
COc1cc(/C=c2\sc3n(c2=O)C(c2c(OC)ccc4ccccc24)C(C(C)=O)=C(C)N=3)cc(OC)c1OC (stereo not given) | nt | 0.13
CCOC(CNC(=O)c1cccc(NC(=O)c2ccc(C(F)(F)F)cc2)c1)(OCC)c1ccccn1 | nt | 0.19
Cc1ccc(Nc2nc(N)nc(CN3CCN(S(=O)(=O)c4ccc5c(c4)CCC5)CC3)n2)cc1 | -1.5 | nt
O=C(O)C1CCCc2c1[nH]c1ccc(Cl)cc21 (stereo not given) | 2.1 | 0.76
CC1=C(C#N)C(c2ccc(Cl)cc2)C(C(=O)Nc2ccccc2)=C(C)N1 (stereo not given) | -0.2 | 24
Cc1cc(=O)[nH]c(SCc2nc3ccccc3s2)n1 | -0.3 | nt
Brc1csc(C2SCCS2)c1 | -0.4 | 0.005
CC(=O)Nc1cccnc1NC(C)=O | -1.2 | 4.3
COC(=O)C1CNCCS1 (stereo not given) | -0.45 | nt
CC(C)(C)c1ccc(COCCn2cc(-c3ccc4ccccc4n3)cn2)cc1 | nt | 4.5
N#Cc1ccc(N2CCSCC2)cc1[N+](=O)[O-] | nt | -0.47
COc1ccc(CCNC(=O)CSc2nc(C)nc3c2c(=O)n(C)c(=O)n3C)cc1OC | -0.5 | nt
O=C(O)c1ccc2cc[nH]c2c1 | 1.6 | 18
CCCc1ccc(S(=O)(=O)NCCN2CCCC2)cc1 | nt | -0.88
CC1(C)CC(=O)C2=C(C1)Nc1ccc3ncccc3c1C2c1ccc(O)c(O)c1 (stereo not given) | 2.8 | nt
c1nc(NCC2CCCO2)c2[nH]cnc2n1 (stereo not given) | 0.05 | -0.6
c1ccc2cc3c(N4CCN(CCN5CCN(c6ccnc7cc8ccccc8cc67)CC5)CC4)ccnc3cc2c1 | nt | 12
CC12CC(c3ccccc3O1)N(C(=O)c1ccccc1)C(=O)N2c1ccccc1 (stereo not given) | -0.55 | 0.065
O=C(CCc1nc2ccccc2[nH]1)NCCc1ccccc1 | -0.5 | -0.6
CC(Sc1nnc(-c2cccs2)n1-c1ccccc1)C(=O)c1c(N)n(C)c(=O)n(C)c1=O (stereo not given) | 1.8 | nt
CCC(=O)NCCn1c(C)cc2ccccc21 | -0.45 | 1

(listing goes on)
smiles | AID504770 | CapD inh
CN1CCC(=NNC(=O)CN(c2cccc(Br)c2)S(C)(=O)=O)CC1 | 0.8 | 0.3
O=C(CC(=O)NC1CCCCC1)NC1CCCCC1 | -0.35 | -0.8
CN=C(Cl)c1ccco1 | -0.95 | nt
O=C(CCN1CCc2ccccc21)NCCN1CCOCC1 | nt | 0.52
Nc1ccccc1C(=O)NNc1c(Cl)cc(Cl)cc1Cl | nt | 30
Cc1ccc(Nc2nc(CN(C)CCCc3[nH]nc(N)c3C#N)cs2)cc1 | 0.35 | nt
NC(=O)CN1CCN(Cc2cccc3ccccc23)CC1 | 0 | 0.9
O=C1N/C(=C/c2ccc(O)cc2)C(=O)N1Cc1ccc(Br)cc1 | 3.3 | 6.3
CCOC(=O)c1sc(SC)c2c1CCC=C2 | 0.25 | 0.57
CCCCNC(=O)Nc1sccc1C#N | 1.8 | nt
Cc1cccc(-c2nc3cc(NC(=O)c4cc([N+](=O)[O-])c(C)c([N+](=O)[O-])c4)ccc3o2)c1 | nt | -0.065
N#CC(C(=O)Nc1ccc(F)cc1)=C(SCc1ccc(Cl)cc1)SCc1ccc(Cl)cc1 | nt | -0.65
Ic1ccc(OC2CCCCO2)cc1 (stereo not given) | nt | -0.065
CCc1nnc(SCC(=O)OC)c2cc3sccc3n12 | -1.2 | -0.035
Cc1noc(/C=C/N(C)C)c1S(=O)(=O)NCCN1CCN(c2ccccc2F)CC1 | -0.3 | -3.8
COCCCNc1oc(-c2ccccc2)nc1S(=O)(=O)c1ccccc1 | -0.5 | 0.005
CCCCn1c(NC(=O)c2ccc(Br)o2)c(S(=O)(=O)c2ccc(C)cc2)c2nc3ccccc3nc21 | -1 | nt
COc1ccc(N=C2SC(C(=O)O)CC(=O)N2C)cc1 (stereo not given) | -0.8 | 0.02
O=S(=O)(NCc1cccs1)c1ccc(Cl)cc1 | nt | -0.42
COc1ccc(N2CC(O)(c3ccc(F)cc3)[N+]3=C2CCCC3)cc1 (stereo not given) | nt | 0.15
COc1ccc(CNC(C)C2CC2)cc1 (stereo not given) | 0.3 | nt
N#Cc1c(NC(=O)C2c3ccccc3Oc3ccccc32)oc(-c2ccco2)c1-c1ccco1 | -0.3 | nt
CN1C(C(=O)NCC2CCCO2)=CC(c2cccs2)=NS1(=O)=O (stereo not given) | 1.1 | -1
NCCN1C(=O)S/C(=C/c2cccs2)C1=O | -0.5 | -1.6
O=C1C2C(c3ccc(Cl)cc3)OC3(C(=O)c4ccccc4C3=O)C2C(=O)N1c1cccc2ccccc12 (stereo not given) | nt | -0.045
CCC(Oc1ccccc1)C(=O)Nc1ccc(Cl)cn1 (stereo not given) | -0.1 | nt
CCOC(=O)C1=NN(c2ccccc2)CC1C(=O)OC (stereo not given) | -0.8 | 2.4
CCOC(=O)c1c2n(c3cc(Br)c(OC)cc13)CCN(Cc1ccccc1)C2 | nt | 1.7
O=c1oc2ccccc2cc1-c1nc(-c2ccccc2)cs1 | 0.35 | 11
O=C(OCc1cncs1)c1ccccc1 | 0.5 | 0.59
Brc1cccc(-c2nnco2)c1 | -0.7 | -0.43
CCn1c(CSc2nc3ccccc3s2)nnc1SCC(=O)c1ccc(O)c(O)c1 | 0.1 | nt
CC(CO)(CO)NC(=S)Nc1ccc(F)c(Cl)c1 | 0.25 | 0.23
CCC(=O)Nc1cccc(C(=O)Nc2cc(C)on2)c1 | -1.1 | nt
O=C(Nc1ccccc1)N1c2ccccc2CCc2ccccc21 | 2.2 | 0.31
Cc1ccc(NC(=O)c2ccccc2)cc1 | nt | 0.05
COc1ccc(/C=C/C(O)=C2/C(=O)N(C)C34CCCC3C2c2ccccc2O4)cc1 (stereo not given) | -0.4 | -0.83
CC1C/C(=C/c2ccco2)C(=O)/C(=C/c2ccco2)C1 (stereo not given) | -0.15 | 0.05
N#Cc1ccccc1OCCCn1cnc2ccccc2c1=O | -0.45 | 0.085
CC(C)CC(NC(=O)c1ccc2c(c1)OCCO2)C(=O)O (stereo not given) | nt | -0.09
Cc1ccc(SCCn2cc(S(=O)(=O)N3CCCC3)ccc2=O)cc1 | 0.15 | nt
CC(=O)NC(=S)N1CCCc2ccccc21 | -0.55 | -1.7
O=C(/C=C/c1ccccc1)Oc1ccc2ccccc2c1 | 2.7 | 0.83
O=C(O)CSCC(=O)NC1Cc2ccccc2C1 | -0.5 | 0.23
CCn1c2ccccc2c2cc(C=C(C#N)C#N)ccc21 | 0.65 | 2.1
CC(Cc1cccs1)C(=O)O (stereo not given) | 0.25 | nt
COc1ccc(C2C3=C(CCCC3=O)Nc3n[nH]c(-c4ccc(Cl)cc4)c32)cc1OC (stereo not given) | -0.7 | 27
O=C(NCC1CCCO1)c1ccc2nc3[nH]c4ccccc4c3nc2c1 (stereo not given) | nt | 0.23
CCOc1ccc(C(=O)NC(C)c2ccccc2)cc1 (stereo not given) | 0.8 | 0.65
COc1cccc(/C(O)=C2\C(=O)C(=O)N(c3ccccn3)C2c2ccccc2)c1 (stereo not given) | -0.35 | -0.14

Going on with the list:
smiles | AID504770 | CapD inh
CCOC(=O)c1ccc(N2C(SC)=NC(=Nc3cccc(C)c3)C23CCCCC3)cc1 | nt | 6.3
COc1ccccc1Nc1cc(N(C)C)c2nonc2c1[N+](=O)[O-] | nt | 0.2
COc1ccc(C2=NN(C(=O)CCCC(=O)O)C(c3cccc(OC)c3OC)C2)cc1 (stereo not given) | nt | 5.4
COC(=O)c1ccc(CC#N)o1 | -0.7 | 0.11
Cc1ccc(C2Nc3ccc4ncccc4c3C3=C2C(=O)CC(C)(C)C3)cc1 (stereo not given) | nt | -0.035
CCOc1ccc(N(CC)S(=O)(=O)N2CCCC(C(=O)O)C2)cc1 (stereo not given) | -0.55 | -0.19
Cc1ccc(N2C(=O)CSC2c2cccc(F)c2)cc1Cl (stereo not given) | nt | -0.34
Cn1c(-c2ccc([N+](=O)[O-])o2)n[nH]c1=S | nt | -2.4
CC(C)(C)OC(=O)N1CCCC(CN)C1 (stereo not given) | 2.1 | nt
COc1ccc(C2=Nn3c(nc4sc5c(c4c3=O)CCCC5)SC2)cc1 | 0.7 | 0.2
Cc1nc(C(=O)N/N=C/c2[nH]ncc2Cl)cs1 | 0.25 | 1.9
COc1ccc(C(c2ccc3cccnc3c2O)N2CCOCC2)cc1 (stereo not given) | 0.2 | 0.34
O=C(O)CSCC(=O)Nc1ccccc1C(F)(F)F | -0.25 | nt
CCN1CCN(C(=O)COc2ccc(S(=O)(=O)N(C)Cc3ccccc3)cc2)CC1 | -1.5 | nt
CC(C)CCNc1ncnc2c1nc1n2CCCCC1 | -1.4 | -0.25

Six entries picked at random from those above:
smiles | AID504770 | CapD inh
CCOC(=O)c1ccc(N2C(SC)=NC(=Nc3cccc(C)c3)C23CCCCC3)cc1 | nt | 6.3
CC(C)CCNc1ncnc2c1nc1n2CCCCC1 | -1.4 | -0.25
COc1ccc(C2=NN(C(=O)CCCC(=O)O)C(c3cccc(OC)c3OC)C2)cc1 (stereo not given) | nt | 5.4
Cc1nc(C(=O)N/N=C/c2[nH]ncc2Cl)cs1 | 0.25 | 1.9
CC(C)(C)OC(=O)N1CCCC(CN)C1 (stereo not given) | 2.1 | nt
COC(=O)c1ccc(CC#N)o1 | -0.7 | 0.11

4 of the compounds above, as labelled records:
Structure: COc1ccc(C(c2ccc3cccnc3c2O)N2CCOCC2)cc1 (stereo not given)
  AID504770 = 0.2
  CapD inh = 0.34

Structure: O=C(O)CSCC(=O)Nc1ccccc1C(F)(F)F
  AID504770 = -0.25
  CapD inh = nt

Structure: CCN1CCN(C(=O)COc2ccc(S(=O)(=O)N(C)Cc3ccccc3)cc2)CC1
  AID504770 = -1.5
  CapD inh = nt

Structure: CC(C)CCNc1ncnc2c1nc1n2CCCCC1
  AID504770 = -1.4
  CapD inh = -0.25
